Compound activity as filed in PubChem BioAssay.
PINK1 modulator – A Quantitative High throughput Screen to Identify Chemical Modulators of PINK1 Expression. PINK1 immunofluorescence, high-content cytometry, 24 h. Potency, µM (doses to about 76.6 µM), for inactives: at the top dose activation (PINK1 increase), hits mostly activators. hit rate 0.2% among 410,000. AID 624263, 2012; active = well fitted activation curve with a large enough effect; inconclusive = small, poorly fitted or top-dose-only effect; inactive = flat fitted curve, though single readings scatter; cell line not stated here;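 also: potency is read from the fitted curve at half-maximal effect; % of control where 0% means no effect; nearly all actives have a fitted effect of over 65% in size; a mitochondrial uncoupler was the plate control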
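A stable cell line was treated with compounds at 5 concentrations for 24 hours, with CCCP as control. PINK1 levels and mitochondrial localization were measured by immunofluorescence with mitochondrial, cell and nuclear markers after fixation, read by laser-scanning cytometry.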
TRPML1 ag – qHTS for Agonists of the Human Mucolipin Transient Receptor Potential 1 (TRPML1) | AID 624414, 2012 | TRPML1-expressing cells, Ca2+ dye fluorescence, FDSS; host cell line not named in the record; reference of the full effect not given here | Mucolipin-1 (Homo sapiens), Q9GZU1 | activation, % (test concentration not listed) | hit rate 0.12% among 410,000; in the data active = activation above about 50%; inconclusive = about 30% to 50%; inactive = below about 30%; also: 0% is about no effect; the text of the record puts the active cut at 80%
Target sequence (Q9GZU1 whole entry, looked up): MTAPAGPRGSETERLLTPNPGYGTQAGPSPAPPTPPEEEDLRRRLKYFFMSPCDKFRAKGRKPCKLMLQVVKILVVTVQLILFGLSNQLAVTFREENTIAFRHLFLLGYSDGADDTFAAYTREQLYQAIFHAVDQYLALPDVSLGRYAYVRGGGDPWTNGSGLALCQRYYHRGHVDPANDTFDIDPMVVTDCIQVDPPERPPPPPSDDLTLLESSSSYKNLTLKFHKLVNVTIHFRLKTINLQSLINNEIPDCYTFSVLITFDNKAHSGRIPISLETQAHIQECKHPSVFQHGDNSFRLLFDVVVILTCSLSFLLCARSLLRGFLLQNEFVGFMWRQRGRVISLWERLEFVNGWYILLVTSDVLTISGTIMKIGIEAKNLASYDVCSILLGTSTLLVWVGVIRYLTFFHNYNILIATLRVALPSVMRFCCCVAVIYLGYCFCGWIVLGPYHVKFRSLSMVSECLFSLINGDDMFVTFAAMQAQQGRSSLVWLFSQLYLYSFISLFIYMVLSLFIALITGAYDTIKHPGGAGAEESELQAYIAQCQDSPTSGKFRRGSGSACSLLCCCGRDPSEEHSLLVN
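Tetracycline-induced TRPML1-DL cells are seeded and incubated overnight before loading with a no-wash Ca2+ dye and quencher. Agonist activity is taken from the 110 s fluorescence read following compound pin-transfer on an FDSS, before EC80 54-4 challenge.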
Menin MLL FP FL – qHTS Assay for Inhibitors Targeting the Menin-MLL Interaction in MLL Related Leukemias: Competition With Fluorescein Labeled MLL-derived Peptide; FP activity change, % at 61.4 µM; 290,000 tested, under 10 active; Fluorescence polarization, fluorescein-MLL peptide displacement from menin; AID 1766, 2009; inconclusive = falling polarisation curve, or a change in total fluorescence; inactive = total fluorescence flat and polarisation flat or rising; no compound was filed as active; the % refers to the polarisation; negative = inhibition;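 also: % of control where 0% means no effect; inhibitors lower the polarisation; unlabelled MLL peptide was the positive control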
Sfp inh – qHTS Assay for Inhibitors of Bacillus subtilis Sfp phosphopantetheinyl transferase (PPTase) | Biochemical Sfp PPTase activity, qHTS | Potency, µM, without a hit: max response, negative = inhibition, most hits filed as inhibitors | hit rate 3.5% among 310,000 | 4'-phosphopantetheinyl transferase ffp (Bacillus subtilis), Q9F4F7; active = well fitted inhibition curve with a large enough effect; inconclusive = small, poorly fitted or top-dose-only effect, or another doubt; inactive = no such curve, though single readings can be large or run the other way;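 also: the enzyme is Sfp with the accession as filed and its product quenches rhodamine fluorescence; potency is read from the fitted curve at half-maximal effect; 0% = enzyme reaction without inhibitor and -100% = no enzyme wells; top concentration of the series not given in the record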
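Reaction rates are the 30-min fluorescence difference (ex 525, em 598 nm) in wells containing 15 nM Sfp, 5 uM rhodamine-CoA and 12.5 uM BHQ-2-YbbR at pH 7.6 with 10 mM MgCl2.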
ClpP mod – qHTS Assay for Activators of ClpP; hit rate 1.9% among 340,000; ATP-dependent Clp protease proteolytic subunit (Bacillus subtilis (strain 168)), P80244; Potency, µM (top dose mostly 57.5 µM), for the others: at the highest dose activity change, negative = active; purified B. subtilis ClpP, FRET peptide cleavage, 20 min; active = well fitted falling curve with a large enough effect; inconclusive = small, poorly fitted or top-dose-only effect; inactive = no such curve, though single readings can be large or run the other way; also: potency is read from the fitted curve at half-maximal effect; the source files actives as falling curves though it sought activators and does not explain the sign; nearly all actives have a fitted effect of over 65% in size; many hits overshoot -100%
Target sequence (P80244 whole entry, looked up): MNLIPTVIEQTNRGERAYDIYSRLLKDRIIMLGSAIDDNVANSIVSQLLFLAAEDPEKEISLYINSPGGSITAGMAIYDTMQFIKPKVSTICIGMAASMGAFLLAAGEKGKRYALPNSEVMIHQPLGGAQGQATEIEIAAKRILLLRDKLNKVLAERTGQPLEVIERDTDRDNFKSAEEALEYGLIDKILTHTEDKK
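ClpP 10 microg/mL final, pH 8 Tris/KCl buffer with BSA, glycerol, Tween-20; compound pinned in; FRET-FV substrate; RT 20 min; Ex320/Em430; ΔFRET vs ADEP 5.8 microM, DMSO, no enzyme.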
TRPV1 PAM – HTS Assay for Compounds that Act as Potentiators of the Vanilloid Receptor 1 | Transient receptor potential cation channel subfamily V member 1 (Homo sapiens), Q8NER1 | TRPV1-expressing cells, Fluo-8 calcium influx, capsaicin EC20 potentiation; host cell line not named in the record; control for the full effect not named in the record | potentiation, % at 8.33 µM | hit rate 0.02% among 320,000; active means potentiation above 80%; inconclusive means 30% to 80%; inactive means below 30%; also: 0% is about no effect
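TRPV1-expressing cells were cultured overnight at 35.5C and loaded with Fluo-8 calcium dye for 40 to 90 min at room temperature. After a 10 s baseline, compound was added and calcium influx was read kinetically for 3 min (ex 480/em 520 nm).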
TRPML1 blocker – qHTS for Inhibitors of the Human Mucolipin Transient Receptor Potential 1 (TRPML1); activity change, negative = inhibition, % (test concentration not listed); AID 624415, 2012; Mucolipin-1 (Homo sapiens), Q9GZU1; hit rate 0.02% among 390,000; TRPML1-inducible cells, Ca2+ dye fluorescence, FDSS; stronger effect = lower value; inhibition of EC80 agonist-evoked calcium signal; in the data active means activity change below about -50%; inconclusive means about -30% to -50%; inactive means above about -30%;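 also: stimulus is agonist 54-4 at its EC80 concentration; % is scaled to controls: 0 for no effect and ±100 for the full control effect; compound concentration not given in the record; the text of the record puts the active cut at -80%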
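Calcium fluorescence in TRPML1-DL cells induced overnight with Tet: a 110 s read after compound pin addition, then a 110 s antagonist read after challenge with 54-4 at 4 uM final (EC80).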
An asterisk follows results filed as active; u = inconclusive; x = no result given; & = joins results of further samples; ! = repeats disagree; [ ] = dose if it differs, or a comment. The order is random. About 4.4% of those tested had a hit in this group.

SMILES	PINK1 modulator	TRPML1 ag	Menin MLL FP FL	Sfp inh	ClpP mod	TRPV1 PAM	TRPML1 blocker
Cc1ccc(Cn2c(C(C)Nc3nc(-c4ccc(F)cc4)cs3)nc3cc(C(=O)NCCCO)ccc32)cc1 (configuration not stated)	2.3%	-0.4	x	x	-1.7%	x	-13
Cc1ccc(CNC(=O)Cn2ccc3ccccc3c2=O)o1	-0.6%	-0.5	1.7	u	-3.7%	-13	0
COc1ccccc1CN1CC[C@@]2(CCCN(C(=O)c3cccn3C)C2)C1	0.9%	x	-6.6	2%	x	x	x
Cc1nc2sc3c(c2c2nc(-c4ccco4)nn12)CCCC3	x	x	1.9	4%	x	-1	x
CC(CCn1cccn1)NC(=O)c1cc(COc2ccc(F)cc2F)on1 (configuration not stated)	1.0%	0.7	5.2	19%	x	8	14
O=S(=O)(CCSc1ccc(C(F)(F)F)cn1)c1ccc(Cl)cc1	0.0%	0.7	0.5	8%	x	-5	21
O=C(NC1CCCC1)C1CCCN(S(=O)(=O)c2ccc(-n3cnnn3)cc2)C1 (configuration not stated)	-0.1%	-0.1	-0.5	9%	-0.1%	u	-5
COc1cc(CNCCSc2nnnn2C)cc(Br)c1OCc1ccccc1	8.1%	1.3	5.4	u	0.9%	21	38
O=S(=O)(Nc1ccc(Br)cn1)c1ccc(Cl)s1	-0.3%	-0.4	3.0	21%	1.3%	4	-3
O=C(O)c1ccc(/C=C2\SC(=S)N(NC(=O)c3ccc(Br)cc3)C2=O)cc1	0.7%	0.4	-0.4	-6%	-4.0%	4	30
CCOC(=O)C(C(C)=O)c1c(Br)c(O)c(O)c2c(C(=O)c3ccc(C)cc3)coc12 (configuration not stated)	u	2.2	1.6	13µM*	-2.2%	1	-7
CCCc1cc(=O)[nH]c(Nc2ccc(O)cc2)n1	-0.6%[38.3 µM]	0.6	-1.3	-6%	0.0%	-3	32
O=C(O)CSc1nnc(COc2cccc3cccnc23)n1-c1ccc(Cl)cc1	0.4%	-0.4	-5.6	17%	x	-11	1
CN(C)C(=O)c1c2c(nc3ccccc13)CCCC2	0.9%	-0.3	0.5	10%	2.2%	-2	12
COc1ccccc1-n1c(SCC(=O)N2CCOCC2)nc(O)c(Cc2ccccc2)c1=O	-4.7%	1.6	3.8	8%	-5.0%	0	-8
COc1cc(OC)cc(OC2(C)CCN(Cc3ccc(OC(C)C)cc3)C2)c1 (configuration not stated)	45µM*	-0.6	x	x	-2.4%	x	x
COc1ccc(NC(=O)N(C)C[C@H]2Oc3c(NS(=O)(=O)c4cccs4)cccc3C(=O)N([C@H](C)CO)C[C@@H]2C)cc1	-1.3%	-0.7	x	x	-1.1%	x	4
CCOc1cc(C(=O)OC(C(=O)NC(=O)NC)c2ccccc2)ccc1OCC(=O)N1CCOCC1 (configuration not stated)	1.5%	0.0	x	x	-7.7%	x	49
CCN1C(=O)N(c2cccc3ccccc23)C(C)=CC1(C)C	-0.8%	2.4	2.3	8%	0.6%	3	2
COc1ccc(-c2[nH]ncc2CN(Cc2nccn2C)C(C)C)c(F)c1	0.1%	0.4	-2.9	-13%	x	3	-9
CC1(C)C(=O)Nc2ccccc2N1C(=O)COC(=O)c1cccs1	0.2%	0.6	x	x	-1.0%	x	-5
Nc1c([N+](=O)[O-])cc(-c2cnc[nH]2)cc1[N+](=O)[O-]	0.0%	0.3	-1.4	9%	-0.5%	0	0
CC1(C(=O)NS(=O)(=O)Cc2cccc(Cl)c2)CCN1C(=O)Cc1ccc(Cl)cc1Cl (configuration not stated)	-0.9%	2.0	x	x	1.0%	x	2
COc1ccc(C(=O)NCc2nnc(SC)n2Cc2ccccc2)cc1	-0.3%	-0.3	-0.7	6%	-41%	11	-10
O=C(NCCCN1CCN(c2cccc(Cl)c2)CC1)C1CCC(=O)N1Cc1ccccc1Cl (configuration not stated)	-0.5%	-0.6	1.3	-6%	-5.6%	-14	4
COc1ccc(/C=C/C(=O)Nc2ccccc2)cc1S(=O)(=O)N1CCOCC1	1.0%	-0.6	2.7	27%	0.3%	1	34
N#CCSc1nnc(-c2ccc3c(c2)OCO3)o1	0.1%	-0.5	-0.2	-6%	x	0	13
O=C(CN1CCN(S(=O)(=O)c2ccccc2)CC1)NCc1ccccc1	-1.1%	0.2	-1.9	9%	1.1%	-5	-2
COc1ccc(/C=N/NC(=O)c2ccn[nH]2)cc1COc1ccc(Cl)cc1	2.9%	0.5	-0.1	5%	-0.4%	-29	18
CCOc1ccc(Nc2nc(N)nc(CN(C)C3CCCCC3)n2)cc1	-2.1%	-0.1	4.3	-12%	2.1%	3	-6
Cc1onc(-c2ccccc2)c1C(=O)Nc1nc(-c2ccc(F)c(F)c2)cs1	5.5%	0.7	0.5	-2%	107%	-1	16
Nc1ccn([C@@H]2O[C@H](C(=O)N(CCC3=CCCCC3)CC3CC3)[C@@H](O)[C@H]2O)c(=O)n1	1.9%	0.1	x	x	-0.7%	x	x
CNC(=O)NC(=O)C(C)OC(=O)CCCSc1nc2ccccc2s1 (configuration not stated)	1.3%	-0.1	11	7%	-0.3%	2	-3
O=C(NCCC1=CCCCC1)c1ccc2c(c1)N(Cc1ccc(Cl)cc1)C(=O)c1ccccc1S2(=O)=O	1.7%	-0.3	x	x	-16%	x	-2
Cc1ccc(NC(=S)N(Cc2ccc(Cl)cc2)Cc2ccc(C(=O)O)cc2)cc1Cl	7.6%	2.1	2.6	-8%	-0.5%	8	33
CCOC(=O)C1CCN(C(=O)CCc2nnc3ccc(NCCCN4CCCC4=O)nn23)CC1	0.7%	-0.8	-6.6	14%	-1.0%	0	-9
CCOC(=O)/C(C#N)=C/c1cn(CCC(=O)O)nc1-c1ccc(F)cc1	-0.6%	1.9	3.1	13%	-1.2%	0	-11
CSc1nc2ccccc2n1CC(=O)Nc1c(C)n(C)n(-c2ccccc2)c1=O	0.3%[38.3 µM]	0.4	-0.2	2%	0.1%	-13	-1
COc1cc(/C=N/NC(=O)C[n+]2ccccc2)cc(OC)c1OC(C)=O	-0.9%	0.4	5.9	13%	x	-5	-28
CCOC(=O)/C(C#N)=C/c1c(OCC)n(CC)c2ccccc12	0.1%	1.8	8.3	-7%	3.0%	-5	45
COc1ccc2nc(Nc3nc(CSc4nc5ccccc5[nH]4)cc(=O)[nH]3)nc(C)c2c1	u	-0.4	0.8	22%	-3.3%	9	-6
O=C(CCn1c(=O)oc2ccccc21)NCCCN1CCOCC1	-0.1%	0.2	1.6	22%	x	6	1
Cc1ccnc(NC(=O)CCC(=O)N(Cc2ccco2)C(C(=O)NC(C)C)c2ccc(F)cc2)c1 (configuration not stated)	0.2%	-0.7	0.9	0%	x	-9	18
O=C(Cc1ccc([N+](=O)[O-])cc1)Nc1ccc2c(c1)CCC2	11%	0.1	-2.1	22%	x	-2	19
COc1ncc2nc(C)c(=O)n(Cc3cccs3)c2n1	0.3%	x	10	-8%	x	x	x
Cn1c(C(=O)NCc2cccs2)cc2c(=O)n(C)c3ccccc3c21	u	1.2	-0.4	7%	-8.8%	20	15
COc1ccccc1NC(=O)N1CCC(c2nnc(SCC(N)=O)n2C)CC1	0.5%	-0.6	3.8	-6%	0.9%	7	31
CCCS(=O)(=O)N1CCC(C(=O)NCCCN(CC)c2cccc(C)c2)CC1	3.0%	-0.8	0.1	4%	-0.3%	u	4
CCOc1ccc(Cc2nnc(N)s2)cc1OCC	1.3%	-0.5	-0.4	24%	-4.0%	7	-8
COc1ccc(-n2cnnc2SCc2ncc(-c3ccccc3)o2)cc1	-0.1%	0.6	0.7	2%	0.8%	2	-1
COc1ccc(N(C(=O)Cn2nnc3ccccc32)C(C(=O)NCc2ccco2)c2ccc(C)o2)cc1 (configuration not stated)	-1.6%	1.3	-1.5	-6%	-1.7%	-16	-4
CCc1noc(C)c1C(=O)Nc1nc(-c2ccc(NC(C)=O)cc2)cs1	1.3%	-0.1	x	x	1.0%	7	16
O=S(=O)(c1ccc(Cl)cc1)N1CCN(c2nc(-c3cccs3)nc3ccccc23)CC1	-0.5%&-0.7%&-0.8%&-0.5%	0.2&0.6&-0.7&0.9	-0.2	2%	20µM*!	3&13	0&-20
CN(C)C=NC(=O)c1ccc(N2CCN(c3ncc(C(F)(F)F)cc3Cl)CC2)cc1	5.8%	0.4	1.8	-1%	25µM*	18	11
Cc1ccc(NC(=O)c2nn(C34CC5CC(CC(C5)C3)C4)cc2[N+](=O)[O-])cc1	u	3.5	3.7	19%	-1.4%	3	81
CC(=O)c1ccc(N2CCN(S(=O)(=O)c3ccccc3)CC2)c(F)c1	1.5%	-0.7	-0.2	19%	x	-5	-16
CCOc1ccccc1NC(=O)COC(=O)CN1C(=O)NC(C)(C)C1=O	0.3%	1.4	x	x	-3.8%	x	-3
Cc1c(Cl)ccc2c(C(=O)NCCN3CCCCC3)cc(-c3ccccn3)nc12	-1.5%	0.6	0.3	-6%	x	u	-12
COc1cc(NC(=O)Cn2nnnc2-c2ccccc2F)cc(OC)c1OC	0.4%	2.4	x	x	0.9%	x	2
COc1ccc(-c2c(NC(=O)c3ccco3)oc3c(C)cccc3c2=O)cc1	1.0%	-0.9	x	4%	-2.1%	26	-2
COc1cccc(CNC(=O)Cn2c(=O)n(CCC(=O)N3CCCCC3)c(=O)c3sccc32)c1	0.7%	0.9	-2.3	20%	-0.9%	-18	35
COc1cc(OC)c2c(C)cc(=O)oc2c1C(CCN1CCCC(C)C1)c1ccc(N(C)C)cc1 (configuration not stated)	x	0.1	-0.5	-17%	x	x	-13
